Screens deposited in PubChem BioAssay by National Center for Advancing Translational Sciences (NCATS).
TSHR ag: agonists of human thyroid stimulating hormone receptor. HEK293-CNG-TSHR cells (CNG channel as cAMP sensor), membrane potential dye, cAMP. Potency, µM (series often up to 57.1 µM), without a hit: top-dose activation, actives largely listed as activators. actives 0.48% (n = 73,000). AID 926; active = well fitted activation curve of enough size with the parental cells flat; inconclusive = any curve in the parental cells; inactive = parental cells flat and receptor cells flat or falling; also: potency is read from the fitted curve at half-maximal effect; % of control where 0% means no effect; weak receptor curves with flat parental cells got no call and are not listed
Target sequence (P16473 whole entry, looked up): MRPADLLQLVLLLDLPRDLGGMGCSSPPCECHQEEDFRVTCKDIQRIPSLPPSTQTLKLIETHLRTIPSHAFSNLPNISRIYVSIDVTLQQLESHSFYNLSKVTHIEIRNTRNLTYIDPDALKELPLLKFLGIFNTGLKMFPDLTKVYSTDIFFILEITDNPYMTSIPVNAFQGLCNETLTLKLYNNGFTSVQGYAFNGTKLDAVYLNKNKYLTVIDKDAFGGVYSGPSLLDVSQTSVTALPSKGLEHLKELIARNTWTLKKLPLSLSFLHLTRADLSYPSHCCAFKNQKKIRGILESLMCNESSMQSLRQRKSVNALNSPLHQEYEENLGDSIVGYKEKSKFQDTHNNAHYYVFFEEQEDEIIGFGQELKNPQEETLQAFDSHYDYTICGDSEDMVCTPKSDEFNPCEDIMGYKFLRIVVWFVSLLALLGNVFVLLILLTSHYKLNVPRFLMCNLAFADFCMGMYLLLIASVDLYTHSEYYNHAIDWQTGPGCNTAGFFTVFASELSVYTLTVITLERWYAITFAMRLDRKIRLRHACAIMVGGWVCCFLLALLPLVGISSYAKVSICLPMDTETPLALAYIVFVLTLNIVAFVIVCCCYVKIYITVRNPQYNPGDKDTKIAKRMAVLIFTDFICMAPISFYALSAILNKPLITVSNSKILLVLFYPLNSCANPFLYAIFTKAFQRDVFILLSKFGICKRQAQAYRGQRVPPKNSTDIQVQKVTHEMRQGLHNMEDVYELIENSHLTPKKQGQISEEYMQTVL
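cAMP rise detected as CNG-channel membrane depolarization by fluorescent dye (emission 590 nm), 30 min after compound, following 60 min dye loading containing 100 uM RO 20-1724 at room temperature. Cells: TSHR/CNG HEK 293, with parental CNG HEK 293 as control.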
AID923: qHTS Assay for Allosteric/Competitive Inhibitors of Caspase-1: Spectroscopic Profiling in AFC Spectral Region. compound fluorescence, AFC spectral region (405/520 nm); almost no hit is shown here. Potency, µM (doses to about 57.5 µM), inactives show at the top dose fluorescence increase, most hits filed as activators. actives 1.1% (n = 75,000). AID 923, 2007; active = well fitted activation curve with a large enough effect; inconclusive = small, poorly fitted or top-dose-only effect;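 also: potency is read from the fitted curve at half-maximal effect; 0% is about no effect; scaled to a free AFC standard on each plate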
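Titrations up to 57 uM read every 20 sec for 3 min (405/520 nm) with 50 nM caspase 1 and 5 uM Ac-WEHD-AFC, pH 7.5 HEPES buffer. Fluorescence-vs-time intercept gave baseline, scaled against on-plate AFC standard.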
Resorufin autofl: resorufin region autofluorescence; AID 588; actives 0.04% (n = 59,000); max dye-equivalent concentration, M; Compound fluorescence, resorufin region 547/598 nm, buffer; stronger effect = higher value; active = above 10 nM dye equivalent; inconclusive = 1 to 10 nM; inactive = 1 nM or less; a few of its hits are not listed in these tables; also: highest value over a series up to 38 µM
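Intrinsic fluorescence profiled in the resorufin window (ex 547 nm, em 598 nm) after 15 min at room temperature in pH 8.0 Tris buffer (100 mM); responses normalized against a six-point resorufin standard series as dye-equivalent concentration.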
A488 fluor: compound fluoresces in the A488 spectral region | compound autofluorescence, A488 spectral region, dye equivalency; stronger effect = higher value | actives 0.1% (n = 59,000) | AID 591 | max dye equivalency, M; active = above 10 nM dye equivalent; inconclusive = 1 to 10 nM; inactive = 1 nM or less; about half of its hits are not listed in these tables;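 also: highest value over a series up to 38 µM; compound alone in buffer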
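Read-out: relative fluorescence at 480/540 nm, expressed as Alexa 488 dye-equivalent concentration from a six-point A488 standard included per plate. Conditions: 100 mM Tris, pH 8.0; 15 min incubation, room temperature.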
A647 autofl: compound fluoresces in the A647 spectral region; Compound fluorescence, A647 channel (570/671 nm), Tris buffer; max dye-equivalent concentration, M; 59,000 tested, under 10 active; AID 592; active means above 1 µM dye equivalent; inconclusive means 0.1 to 1 µM; inactive means 0.1 µM or less;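 also: values scaled relative to a standard on each plate; highest value over a series up to 38 µM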
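Compound fluorescence was measured in 100 mM Tris buffer, pH 8.0, after 15 min at room temperature, using 570 nm excitation and 671 nm emission filters. Signal was normalized to a per-plate Alexa 647 standard curve and expressed as dye-equivalent concentration at each compound concentration.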
An asterisk follows results filed as active; i = inactive; ? = inconclusive; . = not tested or not shown; & = joins results of further samples; [ ] = dose if it differs, or a comment.

Value order – TSHR ag, AID923, Resorufin autofl, A488 fluor, A647 autofl
- NC(N)=NC(=O)Cc1c(Cl)cccc1Cl
 : 16%, -0.8%, i, i, 2.3e-08&3.7e-08
- Cn1c(=O)c2c(ncn2CCO)n(C)c1=O
 : -1%[25.6 µM], -0.8%, i, i, 1e-09&3.3e-09
- COc1ccccc1OC[C@H](O)COC(N)=O
 : -21%[25.6 µM], 0.2%[25.7 µM], i, i, 1e-09
- CCCCNC(=O)[C@@H]1Cc2ccccc2N1C(=O)[C@H](N)CC
 : 1%, -2.6%, ., ., .
- CC(=O)Nc1ccccc1
 : -3%, -1.8%, ., ., .
- CCCOC(=O)c1ccc(O)cc1
 : ?, -0.3%&0.5%, ., ., .
- CCC(=O)O[C@@]1(C(=O)SCF)[C@@H](C)C[C@H]2[C@@H]3C[C@@H](F)C4=CC(=O)C=C[C@@]4(C)[C@]3(F)[C@@H](O)C[C@]21C
 : -4%[25.6 µM], -1.7%[25.7 µM], i, i, 2.5e-09
- CCCCC1C(=O)N(c2ccccc2)N(c2ccccc2)C1=O
 : 11%&16%, -2.8%, i, i, 2.2e-08&1.3e-09
- Cc1cccc(C)c1NC(=O)C1CCCCN1C (centres undefined)
 : ., -0.2%, i, i, 1e-09
- COc1cc2nc(N3CCN(C(=O)[C@H]4COc5ccccc5O4)CC3)nc(N)c2cc1OC
 : -25%, 0.4%, i, i, 7.4e-09
- CCn1cc(C(=O)O)c(=O)c2cc(F)c(N3CCNCC3)nc21
 : -6%[25.6 µM], -2.5%, i, i, 2.2e-08&1e-09
- C[C@@H]1C[C@H]2[C@@H]3C[C@H](F)C4=CC(=O)C=C[C@]4(C)[C@@]3(F)[C@@H](O)C[C@]2(C)[C@@]1(O)C(=O)COC(=O)C(C)(C)C
 : ., ., i, i, 3.8e-09
- CN(C)CCOc1ccccc1Cc1ccccc1
 : ., ., i, i, 3.7e-08
- COc1ccc(/C=C\C(=O)Nc2ccccc2C(=O)O)cc1OC
 : 11%&12%, -0.9%, i, i, 1.7e-09
- Cc1cccc(Nc2cc(Cl)nc(SCC(=O)O)n2)c1C
 : 2%[11.4 µM], 3.3%[11.5 µM], i, i, 1.4e-09
- CCOC(=O)NNc1nncc2ccccc12
 : 3%[25.6 µM], 0.4%, i, i, 1.6e-09
- CCCCOc1ccc(CC(=O)NO)cc1
 : -15%[25.6 µM], 2.4%, i, i, 3.8e-08&1.2e-08
- CC[C@]1(O)C[C@@H]2CN(CCc3c([nH]c4ccccc34)[C@@](C(=O)OC)(c3cc4c(cc3OC)N(C)[C@H]3[C@@](O)(C(=O)OC)[C@H](OC(C)=O)[C@]5(CC)C=CCN6CC[C@]43[C@@H]65)C2)C1
 : ., ., i, i, 1e-09

Among those listed so far, these contain a COOH group:
Value order – TSHR ag, AID923, Resorufin autofl, A488 fluor, A647 autofl
- CCn1cc(C(=O)O)c(=O)c2cc(F)c(N3CCNCC3)nc21
 : -6%[25.6 µM], -2.5%, i, i, 2.2e-08&1e-09
- COc1ccc(/C=C\C(=O)Nc2ccccc2C(=O)O)cc1OC
 : 11%&12%, -0.9%, i, i, 1.7e-09
- Cc1cccc(Nc2cc(Cl)nc(SCC(=O)O)n2)c1C
 : 2%[11.4 µM], 3.3%[11.5 µM], i, i, 1.4e-09

Fetched one by one from the entries so far, 2 records:
Value order – TSHR ag, AID923, Resorufin autofl, A488 fluor, A647 autofl
- COc1cc2nc(N3CCN(C(=O)[C@H]4COc5ccccc5O4)CC3)nc(N)c2cc1OC
 : -25%, 0.4%, i, i, 7.4e-09
- Cc1cccc(Nc2cc(Cl)nc(SCC(=O)O)n2)c1C
 : 2%[11.4 µM], 3.3%[11.5 µM], i, i, 1.4e-09

This is a subset, so the mix of outcomes need not match the whole.
